VACV mCherry inh: vaccinia inhibition (mCherry reporter); 310,000 tested, 0.63% active; Vaccinia virus mCherry reporter infection, fluorescence; about a quarter of the inactives have no number; Potency, µM (series often up to 36.5 µM), without a hit: at the highest dose activity change, negative = inhibition, usual class: inhibitors; active = well fitted inhibition curve with a large enough effect; inconclusive = small, poorly fitted or top-dose-only effect; inactive = no such curve, though single readings can be large or run the other way; tested in A549 cells; also: nearly all actives have a fitted effect of over 35% in size; inactives centre near -10
VACV Venus inh: vaccinia inhibition (Venus reporter); Vaccinia virus Venus reporter expression, fluorescence; Potency, µM (highest dose often 36.5 µM), for the others: top-dose activity change, negative = inhibition, usual class: inhibitors; 330,000 tested, 0.46% active; AID 720580; active means well fitted inhibition curve with a large enough effect; inconclusive means small, poorly fitted or top-dose-only effect; inactive means no such curve, though single readings can be large or run the other way; tested in A549 cells; also: nearly all actives have a fitted effect of over 30% in size; inactives centre near -10
* hit, by the source's call; & = joins results of further samples; [ ] = another dose, or the depositor's remark. % is scaled to controls: 0 for no effect and ±100 for the full control effect; potency is read from the fitted curve at half-maximal effect.

For CC(C)c1ccc2oc(-c3ccc(NC(=O)c4cc5ccccc5o4)cc3)nc2c1 the results were VACV mCherry inh inconclusive and VACV Venus inh inconclusive.
`CC(=O)c1ccc(NC(=O)c2c(C)nn(-c3ccccc3)c2Cl)cc1` gave VACV mCherry inh -5% and VACV Venus inh -2%.
Screening COC(=O)c1ccccc1NC(=O)C1CCCN(S(=O)(=O)c2ccc(OC)cc2)C1 (stereo not drawn) returned VACV Venus inh inconclusive.
For CC(=O)Nc1ccc(S(=O)(=O)NNc2cccc(C)c2)cc1 the results were VACV mCherry inh -11% and VACV Venus inh 14%.
Screening COc1cc(CN2CCCCCC2)cc(Br)c1O returned VACV mCherry inh inactive and VACV Venus inh 12%.
For CC[C@]12c3[nH]c4ccc(OC)cc4c3CCN1C(=O)C(CC(=O)NCCCN(C)C)C[C@@H]2C(=O)N1CCN(C(=O)C2CC2)CC1 (stereo partly drawn) the results were VACV mCherry inh -22% and VACV Venus inh -11%.
`COc1ccc(-c2cn3nc(N4CCCC(C(=O)Nc5cc(C)ccc5C)C4)sc3n2)cc1` (stereo not drawn) gave VACV mCherry inh -10% and VACV Venus inh -16%.
O=C(N/N=C/c1ccc[nH]1)c1ccc([N+](=O)[O-])cc1 was read as VACV mCherry inh -23% and VACV Venus inh -8%.
O=C(N[C@@H](Cc1ccccc1)C(=O)O)c1c(F)c(F)c(F)c(F)c1F was read as VACV mCherry inh -21% and VACV Venus inh inconclusive.
`COCCn1cnc2cc(C)c(C)cc21` gave VACV mCherry inh -2% and VACV Venus inh -11%.
For Cc1ccccc1CSc1cn(CC(=O)N2CCCC2)c2ccccc12 the results were VACV mCherry inh -7% and VACV Venus inh -10%.
`Cc1ccc(-c2nnc(NCc3nc4ccccc4[nH]3)c3ccccc23)cc1S(=O)(=O)N1CCOCC1` gave VACV mCherry inh inconclusive and VACV Venus inh inconclusive.
For CC1OC(OC2C(Oc3c(-c4ccc(O)cc4)oc4cc(O)cc(O)c4c3=O)OC(COC3O[C@@H](C)[C@H](O)[C@@H](O)C3O)C(O)C2O)C(O)C(O)C1O (stereo partly drawn) the results were VACV mCherry inh 5% and VACV Venus inh 1%.
Screening Cc1cc(OCCn2cnc3ccccc3c2=O)ccc1[N+](=O)[O-] returned VACV mCherry inh -14% and VACV Venus inh -8%.
COCc1cccc(-c2csc(C(C)(O)c3ccccc3)n2)c1 (stereo not drawn) was read as VACV mCherry inh -11% and VACV Venus inh -9%.
Screening CC(C)[C@H](NC(=O)c1cc2cc(Cl)ccc2n1C)C(=O)N[C@@H](C(=O)O)c1ccccc1 returned VACV mCherry inh inactive and VACV Venus inh -15%.
Screening CCOC(=O)c1ccc(N2C(=O)C(O)=C(C(C)=O)C2c2ccccc2)cc1 (stereo not drawn) returned VACV Venus inh 4%.
`CCOC(=O)C1CCN(c2ccc([N+](=O)[O-])cc2)CC1` gave VACV mCherry inh inactive and VACV Venus inh -14%.
`Oc1cccc(O)c1` gave VACV mCherry inh -14% and VACV Venus inh -8%.
Screening Cc1ccc(C(=O)c2ccccc2C(=O)OCC(=O)NC(=O)NC(C)(C)C)cc1 returned VACV mCherry inh -14% and VACV Venus inh -8%.

Compounds shown so far containing sulfur, in the order listed:
Screening COC(=O)c1ccccc1NC(=O)C1CCCN(S(=O)(=O)c2ccc(OC)cc2)C1 (stereo not drawn) returned VACV Venus inh inconclusive.
For CC(=O)Nc1ccc(S(=O)(=O)NNc2cccc(C)c2)cc1 the results were VACV mCherry inh -11% and VACV Venus inh 14%.
`COc1ccc(-c2cn3nc(N4CCCC(C(=O)Nc5cc(C)ccc5C)C4)sc3n2)cc1` (stereo not drawn) gave VACV mCherry inh -10% and VACV Venus inh -16%.
For Cc1ccccc1CSc1cn(CC(=O)N2CCCC2)c2ccccc12 the results were VACV mCherry inh -7% and VACV Venus inh -10%.
`Cc1ccc(-c2nnc(NCc3nc4ccccc4[nH]3)c3ccccc23)cc1S(=O)(=O)N1CCOCC1` gave VACV mCherry inh inconclusive and VACV Venus inh inconclusive.
COCc1cccc(-c2csc(C(C)(O)c3ccccc3)n2)c1 (stereo not drawn) was read as VACV mCherry inh -11% and VACV Venus inh -9%.

Gathered by group: the entries above with a Cl atom (two)
`CC(=O)c1ccc(NC(=O)c2c(C)nn(-c3ccccc3)c2Cl)cc1` gave VACV mCherry inh -5% and VACV Venus inh -2%.
Screening CC(C)[C@H](NC(=O)c1cc2cc(Cl)ccc2n1C)C(=O)N[C@@H](C(=O)O)c1ccccc1 returned VACV mCherry inh inactive and VACV Venus inh -15%.

Carrying on:
For Fc1cccc(CSc2ccc3nnc(-c4cccnc4)n3n2)c1 the results were VACV mCherry inh -4% and VACV Venus inh -15%.
Screening CCCCNC(=O)CSc1nc2cc3c(cc2c(=O)n1CCCCCC(=O)NCCc1ccc(OC)c(OC)c1)OCO3 returned VACV mCherry inh -9% and VACV Venus inh -9%.
Screening CCOC(=O)C1=C(C)N(C)C(C)=C(C(=O)OCC)C1c1ccsc1 returned VACV mCherry inh inconclusive and VACV Venus inh -24%.
COc1ccc(OC)c([C@@H](O)[C@H](C)NC(C)(C)C)c1 was read as VACV mCherry inh -13% and VACV Venus inh -8%.
Screening O=C1CCN(Cc2ccc([N+](=O)[O-])cc2)CCN1CCO returned VACV mCherry inh inactive and VACV Venus inh -3%&-10%.
`C=CCNC(=O)c1ccc2c(c1)S(=O)(=O)c1ccccc1C2=O` gave VACV mCherry inh inconclusive and VACV Venus inh -10%.
C=CCN=C(CC)C1=C(O)CCCC1=O was read as VACV mCherry inh -12%[1.46 µM] and VACV Venus inh -6%.
`CCOC(=O)c1sc(=NC(=O)C2CC2)n(C)c1C` gave VACV mCherry inh -4% and VACV Venus inh -8%.
For O=C(CN(C(=O)c1csnn1)c1cccc(F)c1)NCc1ccc2c(c1)OCO2 the results were VACV mCherry inh inconclusive and VACV Venus inh -9%.
`Cc1cc2ccccc2n1CCNC(=O)c1cccc(Br)c1` gave VACV mCherry inh -8% and VACV Venus inh -16%.
COC(=O)c1cccc(C(=O)N2CCc3c(C(=O)OC)c(OCc4ccccn4)cc(=O)n3CC2)c1 was read as VACV mCherry inh -6% and VACV Venus inh 5%.
CCc1nnc2c(N3CCN(c4cccc(C)c4)C(C)C3)nc3ccccc3n12 (stereo not drawn) was read as VACV mCherry inh -15% and VACV Venus inh -3%.
`CC(=O)c1ccc2noc(-c3ccccc3)c2c1` gave VACV mCherry inh -19% and VACV Venus inh -17%.
C[C@H](CO)N1C[C@H](C)[C@@H](CN(C)S(=O)(=O)c2cn(C)cn2)Oc2c(NS(=O)(=O)c3ccccc3)cccc2C1=O was read as VACV mCherry inh inactive and VACV Venus inh -2%.
COc1cccc(N2CCN(Cc3nc4ccccc4c(=O)[nH]3)CC2)c1 was read as VACV Venus inh 7%.
Screening COc1ccc(CCNC(=O)c2ccc3c(c2)S(=O)(=O)N=C2CCCCCN23)cc1OC returned VACV mCherry inh inactive and VACV Venus inh 8%.
O=[N+]([O-])c1ccccc1N/N=C/c1cc2ccccc2nc1Cl was read as VACV mCherry inh 0% and VACV Venus inh -1%.
Screening COc1ccc(CN(C(=O)c2cc3ccccc3oc2=O)C2CCS(=O)(=O)C2)cc1OC (stereo not drawn) returned VACV mCherry inh -7% and VACV Venus inh -6%&-15%.
`COc1ccccc1NCN1C(=O)CCC1=O` gave VACV mCherry inh -14% and VACV Venus inh -8%.
Screening Cn1nnnc1SCCNCc1ccc(OCc2ccc(Cl)cc2)cc1 returned VACV mCherry inh -11% and VACV Venus inh -2%.
`O=C(CSc1nc2[nH]ncc2c(=O)[nH]1)Nc1cccc(Cl)c1` gave VACV mCherry inh -18% and VACV Venus inh -7%.
`O=C(COc1ccc(F)cc1Br)Nc1ccccc1N1CCCC1` gave VACV mCherry inh -8% and VACV Venus inh 0%.
Screening COc1ccc(-c2noc(CN(C)S(=O)(=O)c3ccccc3)n2)cc1OC returned VACV Venus inh -6%.
Screening O=C1NC(=S)NC1=Cc1ccco1 returned VACV mCherry inh -9% and VACV Venus inh -6%.
O=C(O)c1cccc(CSc2nnc(COc3ccccc3)o2)c1 was read as VACV Venus inh -13%.
For CSc1ccc(-c2cccc([N+](=O)[O-])c2)nn1 the results were VACV mCherry inh -16% and VACV Venus inh -18%.
CCCCNC(=O)C1(C)CCN1C(=O)c1ccc2c(c1)CCO2 (stereo not drawn) was read as VACV mCherry inh 13% and VACV Venus inh -11%.
`O=C(Nc1nc2n(n1)C(c1ccc(Cl)cc1)CC(c1ccc(Cl)cc1)N2)c1ccco1` (stereo not drawn) gave VACV Venus inh inconclusive.
`COC(=O)c1ccc(/C=N/NC(=O)CC(=O)NC(C)C)cc1` gave VACV mCherry inh -9% and VACV Venus inh 0%.
For CCN(c1ccc(OC)cc1)S(=O)(=O)c1c(C(=O)N2CCCCCC2)c(C)n(C)c1C the results were VACV mCherry inh 2% and VACV Venus inh -5%.
COc1ccc(S(=O)(=O)N(C)C)cc1NC(=O)CCCSc1ccccc1 was read as VACV mCherry inh -21% and VACV Venus inh -6%.
`Cc1ccccc1CSc1nc2cccnc2n1Cc1ccc(C(=O)NC2CC2)cc1` gave VACV mCherry inh -12% and VACV Venus inh -17%.
`COc1ccc(CNc2ncncc2-c2ccccc2Cl)c(OC)c1` gave VACV mCherry inh 0% and VACV Venus inh 3%.
`Cc1cn2c(=O)cc(COC(=O)COc3ccccc3C)nc2s1` gave VACV mCherry inh -9% and VACV Venus inh 4%.
Screening COc1cccc(CNS(=O)(=O)c2cccc(S(=O)(=O)N3CCOCC3)c2)c1 returned VACV mCherry inh -18% and VACV Venus inh -7%.
`N#Cc1cccc(C(=O)Nc2cccc(S(=O)(=O)N3CCCC3)c2)c1` gave VACV mCherry inh inactive and VACV Venus inh -6%.
`COc1ccc(C(C(=O)NC2CCCC2)N(Cc2ccco2)C(=O)c2snc(C(N)=O)c2N)cc1OC` (stereo not drawn) gave VACV mCherry inh -6% and VACV Venus inh 1%.
For CCc1cccc(NC(=O)CN(c2ccc(C)c(C)c2)S(=O)(=O)c2ccsc2C(=O)OC)c1 the results were VACV mCherry inh -13% and VACV Venus inh -19%.
`CCN1/C(=C/C=C/c2sc3ccccc3[n+]2CC)Sc2ccccc21` gave VACV mCherry inh inactive.
`COCCn1c(SC2CCCCC2=O)nnc1-c1ccncc1` (stereo not drawn) gave VACV mCherry inh -1% and VACV Venus inh -8%.

An excerpt from above in order of length of the SMILES, lowest first.
Screening O=C1NC(=S)NC1=Cc1ccco1 returned VACV mCherry inh -9% and VACV Venus inh -6%.
`Cc1cn2c(=O)cc(COC(=O)COc3ccccc3C)nc2s1` gave VACV mCherry inh -9% and VACV Venus inh 4%.
For CCc1cccc(NC(=O)CN(c2ccc(C)c(C)c2)S(=O)(=O)c2ccsc2C(=O)OC)c1 the results were VACV mCherry inh -13% and VACV Venus inh -19%.

(list continues)
Cc1cccnc1NC(=S)Nc1ccc(Cl)c(Cl)c1 was read as VACV mCherry inh -12% and VACV Venus inh -17%.
Cc1cc(NC(=O)CSc2nnc(CNC(=O)c3ccccc3)o2)no1 was read as VACV mCherry inh -5% and VACV Venus inh -15%.
O=C(NNC(=O)c1ccc(Br)o1)c1ccc(NC(=O)c2ccccc2)cc1 was read as VACV mCherry inh -25% and VACV Venus inh -27%.
For NS(=O)(=O)c1ccc(CCNc2ccnc3cc(Cl)ccc23)cc1 the results were VACV mCherry inh 4% and VACV Venus inh 4%.
Screening O=C(O)CC1(CC(=O)Nc2ccc3ccccc3c2)CCCCC1 returned VACV mCherry inh -12% and VACV Venus inh -9%.
Screening CS(=O)(=O)N(Cc1ccc(F)cc1)Cc1nc2ccccc2c(=O)[nH]1 returned VACV mCherry inh -17% and VACV Venus inh -11%.
For Cc1noc(C(=O)Nc2ccc(C#N)cc2)c1Cl the results were VACV mCherry inh -13% and VACV Venus inh -5%.
CC1=CCn2c(=O)c3ccccc3c(=O)n2C1 was read as VACV mCherry inh inactive and VACV Venus inh -3%.
`CCN(CC)CCNC(=O)C1c2cc(OC)c(OC)cc2C(=O)N(C)C1c1cccs1` (stereo not drawn) gave VACV mCherry inh inactive and VACV Venus inh -11%.
For CC1(C)CC(=O)C(C=NCCN2CCN(C3CC(=O)N(c4ccc(Br)cc4)C3=O)CC2)=C(O)C1 (stereo not drawn) the results were VACV mCherry inh 5% and VACV Venus inh 7%.
Screening CCCCN(C(=O)c1ccc(-n2nc(C)cc2C)cc1)c1c(N)n(CCC)c(=O)[nH]c1=O returned VACV mCherry inh -10% and VACV Venus inh -10%.
`O=C(Nc1ccccc1)/C(=C\c1ccccc1)NC(=O)c1ccco1` gave VACV mCherry inh -6%[7.34 µM] and VACV Venus inh -7%[7.34 µM].
For CCN(CCc1ccccc1)c1ccc2c(c1)C1CC2CCN1C(=O)OCc1ccccc1 (stereo not drawn) the results were VACV mCherry inh -10% and VACV Venus inh inconclusive.
For O=C(NC(=S)Nc1ccccc1)c1csnn1 the results were VACV mCherry inh -14% and VACV Venus inh -8%.
For O=C(c1ccc2c3n(nc2c1)-c1ccc(Cl)cc1CO3)N1CCOCC1 the results were VACV mCherry inh -17% and VACV Venus inh inconclusive.
`COCC(C)NCc1cc2ccc(OC)cc2nc1N1CCN(c2ccc(F)cc2)CC1` (stereo not drawn) gave VACV mCherry inh inconclusive and VACV Venus inh inconclusive.
Screening COc1ccc(-c2nc3ccc(C)cn3c2Nc2ccc3c(c2)OCO3)cc1 returned VACV mCherry inh 15% and VACV Venus inh 8%.
For OC1COCOC1C(O)C1OCOCC1O (stereo not drawn) the results were VACV mCherry inh inactive and VACV Venus inh 0%.
